Source: PubChem
Sa helicase inh = blocks Staphylococcus aureus DNA helicase | purified S. aureus helicase, fluorescence unwinding assay; about half of the hits fall short of the stated cut | inhibition, %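 (tested at about 80 µM)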 | 0.05% of 120,000 active;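 active = both duplicates at 50% or more, or one of them with a favoured structure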;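 also: 0% = mean of negative control wells and 100% = mean of positive control wells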
MgrA DNA FP = modulators of Staphylococcus aureus MgrA DNA binding; inhibition, %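 (about 10 µg/mL by stock and volumes)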; 0.13% of 84,000 active; fluorescence polarization;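 active = above 50% in either of two replicates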;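 also: 0% = protein plus DNA without compound and 100% = DNA alone without protein; higher means less MgrA bound to DNA so lower polarization; one replicate is shown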
Active calls of the source: *; x = not tested or not shown. Some of the compounds tested (hit frequency here may not be typical).

SMILES	Sa helicase inh	MgrA DNA FP
CC1CN(S(=O)(=O)c2ccc3c(c2)n(C)c(=O)c(=O)n3C)c2ccccc2S1 (stereo unspecified)	-18	x
O=C(NCc1ccccc1)c1cc(S(=O)(=O)N2CCCCC2)ccc1N1CCOCC1	-14	x
CC(=O)Nc1ccccc1C(=O)OCC(=O)Nc1ccc(S(N)(=O)=O)cc1	14	x
C=CCNC(=O)c1c(N)n(-c2cccc(C(=O)O)c2)c2nc3ccccc3nc12	9	x
Cn1nnnc1SCCNCC#Cc1ccccc1	21	x
C=CCN(Cc1nc(-c2ccccc2)no1)C(=O)c1ccccc1	3	-0.8
C1=C(c2ccccc2)N2CCCCN=C2S1	x	0.8
COCCN1Cc2cccc(C(=O)NC3CCCCCC3)c2C1=O	6	x
Cc1ccc(-c2n[nH]n3c2nc(=O)c2ccccc23)cc1	-3	1.0
O=c1c2c(F)c(F)c(F)c(F)c2on2c3c(cc12)CCCC3	8	x
Cc1cccc(N2CCN(C(=O)c3ccc(CS(=O)(=O)Cc4cccc(Cl)c4)o3)CC2C)c1 (stereo unspecified)	-15	x
Cc1ccccc1CSCC(=O)Nc1c[nH]c(=O)[nH]c1=O	-3	-2.2
CNC(=O)/C(=C\c1ccco1)NC(=O)c1ccccc1	-12	x
COc1ccc(N/C=C2/Sc3ccccc3NC2=O)cc1	x	-1.5
CC(=O)OCOC(c1ccc2ccccc2c1)P(=O)(OCOC(C)=O)OCOC(C)=O (stereo unspecified)	x	0.2
CCC(Sc1nc2ncccc2o1)C(=O)Nc1cc(OC)ccc1OC (stereo unspecified)	-6	x
N#CCOc1ccc(Cl)c(Cl)c1	0	0.5
Cc1cc(N/C=C(\C#N)C(=O)c2cc(C)oc2C(F)(F)F)no1	-12	x
Cc1ccc(SC(CC(=O)c2ccc(C(C)(C)C)cc2)C(=O)O)cc1 (stereo unspecified)	-3	1.2
O=C(O)COc1ccc(NC(=O)c2ccccc2F)cc1	-17	-2.2
CSc1nc(Sc2ccccc2)c(C#N)c(Sc2ccccc2)n1	-30	x
O=C(N/N=C/c1ccc(F)cc1)c1n[nH]c2c1CCC2	15	x
C=CCN1C(=O)C(CC(=O)NCC)SC1=Nc1ccccc1OC (stereo unspecified)	8	0.7
CCOC(=O)c1cn(CC)c2cc(F)c(F)cc2c1=O	1	-0.7
COC(=O)c1cnn2c1NCN(Cc1ccccc1)C2	7	1.9

Brought forward from above: 2 entries; new compounds follow.
SMILES	Sa helicase inh	MgrA DNA FP
CCOC(=O)c1cn(CC)c2cc(F)c(F)cc2c1=O	1	-0.7
COC(=O)c1cnn2c1NCN(Cc1ccccc1)C2	7	1.9
CCc1ccc(NS(=O)(=O)c2ccc3c(c2)CCCN3C(C)=O)cc1	13	0.6
C=CCOc1cccc(C2c3c(oc4ccccc4c3=O)C(=O)N2c2ccccn2)c1 (stereo unspecified)	1	x
Cc1ccc(CSC(=N)N)cc1	x	-0.2
Cc1nc(C(F)(F)F)ccc1C(=O)Oc1ccc(OC(F)(F)F)cc1	x	-1.0
COc1ccc(CCNC(=O)c2nc(S(C)(=O)=O)ncc2Cl)cc1OC	2	0.9
COc1ccc(Nc2cc(C)nc(-c3ccccc3)n2)cc1	-15	-0.1
COc1ccc(CNC2CCCC2)cc1	14	-0.9
COc1cc2oc(=O)c3c(c2cc1Cl)CCC3	16	x
NC(=O)C1CCN(CC(O)COc2ccc(F)cc2)CC1 (stereo unspecified)	x	0.1
c1ccc(CCC2CCCCN2)cc1 (stereo unspecified)	7	-3.0
CC(C)c1nc2ccccc2n1CCCOc1ccccc1	16	-0.8
Cc1cccc(NC(=O)c2cccnc2Oc2ccccc2)c1C(=O)O	x	-2.9
O=c1[nH]c2ccccc2cc1-c1noc(-c2ccccc2)n1	-18	0.8
NNC(=O)c1csc(-c2ccncc2)n1	-2	x
COc1ccccc1CN(C)C(C)C(=O)Nc1ccc(S(N)(=O)=O)cc1 (stereo unspecified)	-6	x
CC(C)N=C(Nc1ccc(Cl)cc1)c1cccnc1	x	3.5
O=C(CN1C(=O)c2cccc3cccc1c23)N(Cc1ccccc1)Cc1ccccc1	-5	2.2
Cc1c(C#N)c(NC(=O)CSC(=S)N2CCCC2)n(Cc2ccco2)c1C	-5	x
O=S(=O)(NCc1ccccc1)c1ccc(-n2cccn2)cc1	13	x
COC(=O)c1cc(S(=O)(=O)NCCCN2CCc3ccccc3C2)c[nH]1	8	x
CCc1nc(NCCN2CCOCC2)c(C#N)c2c1CCCC2	6	-0.7
NS(=O)(=O)c1ccc(NC(=O)CC(=O)Nc2ccc(S(N)(=O)=O)cc2)cc1	-34	x
Cc1noc(C)c1C(=O)Sc1cccc(C(F)(F)F)c1	x	3.1
Cc1nc(SCc2cc(=O)n3c(C)cccc3n2)n(C2CCCC2)c1C	-4	x
Cn1c(-c2ccc(NC(=O)c3ccccc3)cc2)n[nH]c1=S	2	-1.6

Record cards, as listed above.
Results for Cc1nc(SCc2cc(=O)n3c(C)cccc3n2)n(C2CCCC2)c1C → Sa helicase inh = -4; MgrA DNA FP = x
Results for Cc1ccc(-c2n[nH]n3c2nc(=O)c2ccccc23)cc1 → Sa helicase inh = -3; MgrA DNA FP = 1.0

New compounds follow:
SMILES	Sa helicase inh	MgrA DNA FP
COc1ccccc1NC(=S)Nc1ccc(C)c(NS(C)(=O)=O)c1	x	-3.4
CCCCNC(=O)C1(NC(=O)Nc2ccccc2)CCCCC1	12	-0.4
Cn1cccc1C(=S)N=P(C1CCCCC1)(N1CCOCC1)N1CCOCC1	4	x
O=C(c1n[nH]c(=O)c2ccccc12)N1CCC(n2c(=O)[nH]c3ccccc32)CC1	-4	x
O=C(NCCN1CCOCC1)c1c(O)c2ccccc2[nH]c1=O	3	1.9
Cc1cccnc1NC(=O)c1c(O)c2cc(F)cc3c2n(c1=O)C(C)CC3 (stereo unspecified)	-11	2.4
O=C(CSc1nccn1-c1ccc(Cl)cc1)Nc1ccccc1F	-10	x
O=C(O)/C=C/c1ccc(-c2ccc(Br)cc2)o1	17	4.3
Cc1ccc(CC2(O)CC(C)N(C)CC2C)cc1 (stereo unspecified)	-10	0.2
Cc1nc(-c2cccc(NC(=O)c3cc4ccccc4oc3=O)c2)cs1	13	x
COC(=O)C1CCCN1S(=O)(=O)c1ccc(C)cc1 (stereo unspecified)	23	x
CN(C)CCCN1C(=O)C(=O)/C(=C(/O)c2ccc(S(=O)(=O)N(C)C)cc2)C1c1ccccc1 (stereo unspecified)	-11	x
CCn1nc(NC(=O)c2cccs2)c2cc3ccccc3nc21	2	-0.6
COCc1c(C(=O)Nc2ccc(F)cc2)oc2ccccc12	9	x
CCOC(=O)/C=C\c1cn(-c2ccccc2)nc1-c1ccccc1	-12	-0.4
Cc1ccc(Cn2cc3c(n2)-c2c(oc(C(=O)NCCCN4CCCCCC4)c2C)CC3)cc1	2	0.2
CSC(=Nc1ccccc1C(F)(F)F)N1CCCC1	x	-5.8
CCOc1cc(/C=C2/SC(=S)N(C(C(=O)O)c3ccccc3)C2=O)ccc1O (stereo unspecified)	-125	x
O=C(Cc1n[nH]c(=O)c2ccccc12)N1CCCc2ccccc21	-4	x
CC1Cc2ccccc2N1C(=O)c1ccnc(C(C)(C)C)c1 (stereo unspecified)	2	0.0
CCn1c(=O)cc(SCC(=O)NCCc2ccc(C)cc2)c2ccccc21	9	-1.1
Cc1ccc(NC(=O)COC(=O)C2CCCN2C2=NS(=O)(=O)c3ccccc32)cc1C (stereo unspecified)	6	x
CCc1cccc(NC(=O)CCNS(=O)(=O)c2ccc3c(c2)oc(=O)n3C)c1	26	x
COCCN=C1Sc2nc3c(C)cccc3cc2CN1Cc1ccco1	-2	10
CC1CCC2(CC1)NC(=O)N(Cc1ccccc1)C2=O (stereo unspecified)	-7	x

Carrying on.
SMILES	Sa helicase inh	MgrA DNA FP
CC(C)(C)CC(=O)NCc1cn2ccsc2n1	13	-1.3
CSC(=S)NN=C1CCCC1	-12	x
Cc1ccc(C(=O)c2c(N)sc3c2CCC3)cc1	-36	3.0
Cc1ccc(C(CC(=O)O)NC(=O)CN2C(=O)c3ccccc3C2=O)cc1 (stereo unspecified)	9	x
COc1ccc(-c2c(C#N)c(C(C)=O)[nH]c(=O)c2C#N)cc1	x	-2.3
O=C(Cc1ccc2c(c1)OCCO2)N/N=C/c1ccc(-c2ccc(F)cc2)o1	-18	x
O=C(c1c[nH]c(=O)[nH]c1=O)N1CCc2ccccc2C1	8	x
CSc1ncc(Cl)c(C(=O)O)n1	x	1.3
COC(=O)/C(=C(/O)CSc1nnc(-c2ccc(C)cc2)o1)c1nc2ccccc2[nH]1	-4	x
O=C(O)CCC(=O)N1CCc2cc(S(=O)(=O)NCc3ccccc3)ccc21	14	x
Cc1nn(Cc2ccccc2Cl)c2sc(C(=O)NCCN3CCOCC3)cc12	13	x
CC1CCC(NC(=O)CN2C(=O)CSc3ncccc32)CC1 (stereo unspecified)	3	-1.1
O=C(CS(=O)(=O)c1cn(Cc2ccc(Cl)cc2)c2ccccc12)N1CCc2ccccc21	4	1.1
COc1cc(CC(=O)OCC(=O)N(C)C2CCCCC2)cc(OC)c1OC	-2	x
CC1CN(S(=O)(=O)c2ccc(N3C(=O)CC4(CCCC4)C3=O)c(Cl)c2)CC(C)O1 (stereo unspecified)	x	0.8
CSc1n[nH]c(N)c1S(=O)(=O)c1ccccc1	-33	x
CN(CCOC(=O)c1c(F)cccc1Cl)c1ccc(C#N)cn1	x	-2.5
COc1ccc(C(=O)OCC(=O)n2c(C)c(C)c3ccccc32)cc1	0	1.8
COc1ccccc1C1C2=C(CCCC2=O)Nc2ccc3ncccc3c21 (stereo unspecified)	13	24
O=C(CCSc1ccccc1C(=O)O)Nc1ccc(F)cc1	-11	-3.5
CN(C)C(CNc1ncnc2sccc12)c1cccs1 (stereo unspecified)	-10	x
CC(O)CNc1nc2ccccc2nc1-c1ccccc1 (stereo unspecified)	10	-0.1
O=C(O)c1ccc(NCc2nc3ccccc3n2Cc2ccccc2)cc1	6	x
COc1cccc(C2C3=C(CC(C)(C)CC3=O)NC3=C2C(=O)CC(C)(C)C3)c1	-1	1.8
O=C1NC(=Nc2cccc(Cl)c2)S/C1=C/c1cccs1	-28	x

Additional records:
SMILES	Sa helicase inh	MgrA DNA FP
Nc1c(C2=NCCO2)nnn1Cc1ccccc1	0	x
C=CCN(CC=C)C(=S)Nc1ccc2nc(C)c(C)nc2c1	9	0.1
Cc1ccc(N(C(=O)c2ccco2)C(C(=O)NC2CCCC2)c2ccc(N(C)C)cc2)c(C)c1 (stereo unspecified)	-10	2.5
O=C1CCCCC(=O)N(c2ccccc2)c2ccccc21	0	x
CC(NC(=O)c1cc2sccc2s1)c1ccccc1 (stereo unspecified)	x	-2.5
CC1(C(=O)O)COC(c2ccc(Cl)cc2)OC1 (stereo unspecified)	4	-4.4
C=CCNC(=O)c1cccc(Oc2ccccc2)c1	-15	1.6
CCOc1cccc2cc(C(=O)Nc3ccc(Cl)cc3Cl)c(=O)oc12	13	x
CSc1nnc(-c2c[nH]c3ccccc23)n1-c1ccc(F)cc1	2	x
O=C(CN1C(=O)c2ccccc2C1=O)ON=C1CCCCC1	5	-0.5
N#Cc1cc2c(ccc3ccccc32)oc1=N	8	11
COC(=O)c1ccc(-n2c(C)ccc2C)cc1	1	0.0
CCc1nnc(NC(=O)c2c(O)c3ccccc3n(C)c2=O)s1	3	-1.0
O=C(CCN1C(=O)/C(=C\c2cccs2)SC1=S)Nc1ccc(F)cc1	x	-1.2
COc1ccc(Oc2cccc(Cl)c2CNC(=O)c2ccccc2N)cc1	x	-0.8
Cc1cc2oc(=O)cc(CN(C)c3ccccc3)c2cc1C	-11	x
Cc1onc(-c2c(Cl)cccc2Cl)c1C(=O)NC1CCN(Cc2ccccc2)CC1	x	-2.5
CCNS(=O)(=O)c1ccc(NC(=O)c2nc3nc(C)cc(C(F)F)n3n2)cc1	-29	x
O=C(Nc1ccc2nc[nH]c2c1)C1CCCCC1	7	3.6
O=S(=O)(Nc1ccc(Oc2ncnc3cc(Cl)ccc23)nc1)c1ccc(-c2ccccn2)s1	x	2.2
CC(C(=O)c1ccccc1)S(=O)(=O)c1ccccc1 (stereo unspecified)	9	1.0
COc1ccccc1N1CCN(CC(O)COc2cccc3ccccc23)CC1 (stereo unspecified)	x	1.1
O=C(O)c1cc2cc(Cl)ccc2[nH]c1=O	6	-1.8
CC(C)CNC(=O)/C=C/c1ccc2c(c1)OCO2	1	x
O=C(Cn1cc(CO)c2ccccc21)Nc1ccc(F)cc1	11	x

New compounds follow
SMILES	Sa helicase inh	MgrA DNA FP
CCN1C(=O)CC(n2c(C)nc3ccccc32)C1=O (stereo unspecified)	2	-2.2
Cc1ccc(NC(=O)CSCC(=O)O)cc1	-1	0.2
N#CCn1c(CSc2nncn2-c2ccccc2)nc2ccccc2c1=O	-8	x
Cc1ccccc1-c1nc(CS(=O)(=O)CC(=O)NCc2ccc3c(c2)OCO3)c(C)o1	1	0.3
O=C(Nc1cccc(Cl)c1Cl)N1CCCN(Cc2ccc(Cl)cc2Cl)CC1	x	-3.4
O=S(=O)(c1ccccc1)c1cccc(S(=O)(=O)N2CCOCC2)c1	2	1.7
COc1ccccc1C(=O)NCc1nnc(SCC(=O)Nc2cccc(Cl)c2)n1C	-3	-2.1

Laid out differently: seven of the compounds above
Below each compound – Sa helicase inh | MgrA DNA FP
- C=CCN(CC=C)C(=S)Nc1ccc2nc(C)c(C)nc2c1
    9 | 0.1
- Cc1c(C#N)c(NC(=O)CSC(=S)N2CCCC2)n(Cc2ccco2)c1C
    -5 | x
- Cc1cc(N/C=C(\C#N)C(=O)c2cc(C)oc2C(F)(F)F)no1
    -12 | x
- COc1ccccc1NC(=S)Nc1ccc(C)c(NS(C)(=O)=O)c1
    x | -3.4
- CCc1ccc(NS(=O)(=O)c2ccc3c(c2)CCCN3C(C)=O)cc1
    13 | 0.6
- O=C(O)/C=C/c1ccc(-c2ccc(Br)cc2)o1
    17 | 4.3
- NS(=O)(=O)c1ccc(NC(=O)CC(=O)Nc2ccc(S(N)(=O)=O)cc2)cc1
    -34 | x
